GIRK2 act – opens human GIRK2 potassium channels; P48051; HEK293-GIRK2 thallium flux, Thallos fluorescence; calls only for hits at 25 µM; actives 0.05% (n = 63,000);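 active = among the strongest 0.2% of first-round signals and kept after retests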;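 note: first round at about 10 µM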
Target sequence (P48051 whole entry, looked up): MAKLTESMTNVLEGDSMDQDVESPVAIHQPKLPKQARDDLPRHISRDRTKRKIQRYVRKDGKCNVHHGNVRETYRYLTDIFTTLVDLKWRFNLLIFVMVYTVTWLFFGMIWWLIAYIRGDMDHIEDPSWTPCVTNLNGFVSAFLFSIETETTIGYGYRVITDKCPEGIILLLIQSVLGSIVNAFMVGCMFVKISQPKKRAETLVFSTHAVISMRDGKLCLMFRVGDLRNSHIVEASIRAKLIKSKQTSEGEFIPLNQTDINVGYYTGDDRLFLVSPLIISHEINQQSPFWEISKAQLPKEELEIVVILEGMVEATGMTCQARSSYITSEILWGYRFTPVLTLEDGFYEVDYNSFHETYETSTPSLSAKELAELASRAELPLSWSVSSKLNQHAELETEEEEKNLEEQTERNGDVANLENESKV
Calls only. The list is partial; count on the stated rates, not on these rows.

What do the screens show for `OC[C@H]1O[C@@H](OC(CCCCc2ccc(O)cc2)CCc2ccc(O)cc2)[C@H](O[C@@H]2OC[C@](O)(CO)[C@H]2O)[C@@H](O)[C@@H]1O` (stereo not given in full)?
GIRK2 act: inactive

How did CC(C)c1nccn1CC1CCN(C(=O)/C=C/c2cccs2)CC1 do in these assays?
GIRK2 act: inactive

How did Cc1nc(C)c(C(=O)NCc2sc3nc(-c4ccc(F)cc4)cn3c2C)s1 do in these assays?
GIRK2 act: inactive

Results for O=C(c1cccs1)N1CCC(CSCc2ccco2)CC1 ?
GIRK2 act: inactive

What do the screens show for `Cn1c(=O)c2c(nc3n2CC(=O)N(CCc2ccccc2)C3)n(C)c1=O`?
GIRK2 act: inactive

Results for COC(=O)c1ccc(NC(=O)CN2CCc3nc(NC(C)=O)sc3C2)cc1 ?
GIRK2 act: inactive

What do the screens show for `O=C(Cc1cccc2ccccc12)N1CCOCC1CO` (stereo not given)?
GIRK2 act: inactive

Results for CSc1ccc(CNC(=O)c2cn(-c3cccc(F)c3)nn2)cc1 ?
GIRK2 act: inactive

What do the screens show for `COc1cccc(CSc2nc(CC(=O)Nc3ccc(F)c(F)c3)cc(=O)[nH]2)c1`?
GIRK2 act: inactive

Results for Cc1nsc(C(=O)N2CCC(Cc3ccccc3)CC2)n1 ?
GIRK2 act: inactive

Results for CCOC(=O)c1cccc(Nc2c(C(=O)N3CCSCC3)cnc3nc(C)ccc23)c1 ?
GIRK2 act: inactive

Results for COc1ccc(CCC(=O)Nc2ccccc2-c2ccc(=O)[nH]n2)cc1 ?
GIRK2 act: inactive

Results for CS(=O)(=O)N(Cc1ccsc1)CC(F)(F)F ?
GIRK2 act: inactive

What do the screens show for `COc1ccc(-c2c[nH]c(=S)n2Cc2ccco2)cc1`?
GIRK2 act: inactive

How did O=C(C1CC1)N1CC(c2nc(-c3ccccc3)no2)C1 do in these assays?
GIRK2 act: inactive

How did CS(=O)(=O)N1CCC2(CC1)OCCS2 do in these assays?
GIRK2 act: inactive

How did CCn1cc(-c2nc(-c3ccccc3OC)no2)c(=O)c2cc(F)ccc21 do in these assays?
GIRK2 act: inactive

How did COc1ccc(C)cc1NC(=O)c1cc(S(=O)(=O)N2CCN(c3cccc(C)c3)C(C)C2)ccc1F (stereo not given) do in these assays?
GIRK2 act: inactive

How did CN(C)CC1COCCN1C(=O)c1cc(-c2ccccc2)n[nH]1 (stereo not given) do in these assays?
GIRK2 act: inactive

Results for O=C(NCc1cc(-c2ccncc2)n(C2CCCC2)n1)c1ccc(OC(F)(F)F)cc1 ?
GIRK2 act: inactive

What do the screens show for `Cn1nc(-c2ccc(F)cc2)cc1C(=O)NCC(C)(O)c1cccs1` (stereo not given)?
GIRK2 act: inactive

Results for O=C(CSc1nnc2ccc(C(=O)Nc3cccc(F)c3)cn12)Nc1ccc(C(F)(F)F)cc1 ?
GIRK2 act: inactive

How did COC(=O)Cn1c(=O)c2c(nc3n2CCN3c2cc(C)ccc2OC)n(C)c1=O do in these assays?
GIRK2 act: inactive

How did COc1ccccc1NC(=O)CNS(=O)(=O)c1cc(C)ccc1C do in these assays?
GIRK2 act: inactive

Results for Cc1ccc(-c2cc3c4nn(CC(=O)NCc5ccccc5)c(=O)n4ccn3n2)cc1C ?
GIRK2 act: inactive

What do the screens show for `CCOC(=O)c1sc2ccccc2c1S(=O)(=O)Nc1cc(Cl)ccc1OC`?
GIRK2 act: inactive

What do the screens show for `CSCC(C)(O)CNS(=O)(=O)c1ccc(Br)cc1` (stereo not given)?
GIRK2 act: inactive

What do the screens show for `O=C(Cc1cn2ccsc2n1)Nc1cc(N2CCOCC2)ncn1`?
GIRK2 act: inactive

Results for Cc1cc(CN2CCC(CNC(=O)CSc3ccc(F)cc3)CC2)c(C)o1 ?
GIRK2 act: inactive

What do the screens show for `O=C(Cn1nc2c(SC3CCCCC3)nccn2c1=O)Nc1ccccc1Br`?
GIRK2 act: inactive

Results for Oc1cc(O)cc(/C=C/c2ccc(O)c(O)c2)c1 ?
GIRK2 act: inactive

How did O=C(c1ccco1)N1CCN(c2cc(N3CCCCC3)ncn2)CC1 do in these assays?
GIRK2 act: inactive

How did Cc1c(C)n2c3c(=O)n(CCN4CCCCC4)c(=O)n(C)c3nc2n1-c1ccccc1 do in these assays?
GIRK2 act: inactive

How did O=C(NC1CCN(C(=O)c2cc(-c3ccc(F)cc3)n[nH]2)CC1)c1cccs1 do in these assays?
GIRK2 act: inactive

How did COc1ccc(-n2c(C)c(C)n3c4c(=O)n(CC(=O)OCc5ccccc5)c(=O)n(C)c4nc23)cc1 do in these assays?
GIRK2 act: inactive

Results for CC(=O)Nc1sc(C)c(C)c1-c1nc2ccccc2s1 ?
GIRK2 act: inactive

What do the screens show for `CS(=O)(=O)C1CCN(C(=O)/C=C/c2ccccc2Cl)CC1`?
GIRK2 act: inactive

Results for COc1cc(C2CC(c3cccs3)=NN2C(C)=O)cc(OC)c1OC (stereo not given) ?
GIRK2 act: inactive

What do the screens show for `O=C(Cn1c(=O)n(CCc2ccccc2)c(=O)c2sc3ncccc3c21)NCc1ccc(F)cc1`?
GIRK2 act: inactive

What do the screens show for `CC(=O)c1cccc(NC(=O)CCn2nc(C)c(C)c2C)c1`?
GIRK2 act: inactive

What do the screens show for `COc1ccc(S(=O)(=O)Nc2ccc3c(c2)N(C(=O)c2ccccc2)CCC3)cc1Cl`?
GIRK2 act: inactive

Results for O=C(NCCOc1cc(N2CCCCC2)ncn1)c1ccccn1 ?
GIRK2 act: inactive

Results for Cc1ccc2nc(C3CN(C(=O)C4(c5ccccc5)CCOCC4)C3)[nH]c2c1 ?
GIRK2 act: inactive

What do the screens show for `O=C(NCC1CCN(S(=O)(=O)c2cccnc2)CC1)C1COc2ccccc2O1` (stereo not given)?
GIRK2 act: inactive

Results for COc1ccccc1OCC#CCNC(=O)c1cccc(N(C)C)c1 ?
GIRK2 act: inactive

Results for O=C(c1ccc(=O)[nH]n1)N1CCN(c2ccc(-c3noc(C(F)(F)F)n3)cn2)CC1 ?
GIRK2 act: inactive

Results for O=C(Cc1ccccc1Cl)Nc1cc(OCc2ccc3c(c2)OCO3)ncn1 ?
GIRK2 act: inactive

How did O=C(Nc1cc(N2CCCC2)ncn1)Nc1cccs1 do in these assays?
GIRK2 act: inactive

How did Cn1c(C(F)(F)F)nn(CCNC(=O)C2COc3ccccc3O2)c1=O (stereo not given) do in these assays?
GIRK2 act: inactive

Results for Cc1ccccc1C(=O)Nc1ccc(C)c(N2CCCC2=O)c1 ?
GIRK2 act: inactive

Results for COc1ccc(OC)c(-c2cc(C(=O)NCCC(O)c3ccc4c(c3)OCO4)n(C)n2)c1 (stereo not given) ?
GIRK2 act: inactive

Results for O=C(Cn1cnc2ccccc21)N1CCN(CCn2ccnc2-c2ccccc2)CC1 ?
GIRK2 act: inactive

What do the screens show for `Cc1cc(C)n(-c2cc(SCC(=O)NC3CCCC3)ncn2)n1`?
GIRK2 act: inactive

Results for COc1ccc(C(CNS(=O)(=O)c2ccc(OC)c(C)c2)N2CCN(C)CC2)cc1 (stereo not given) ?
GIRK2 act: inactive

How did CCOC(=O)c1c(NC(=O)c2cccc(-n3cnnn3)c2)sc(C)c1C do in these assays?
GIRK2 act: inactive

Results for Cc1noc(C)c1Cn1cccc(-c2nc(-c3ccsc3)no2)c1=O ?
GIRK2 act: inactive

What do the screens show for `CC(C)OC(=O)c1ccc(N/C=C(\C#N)c2nc(-c3ccc4c(c3)OCO4)cs2)cc1`?
GIRK2 act: inactive

Results for CC(C)=CCC/C(C)=C/COc1ccc2ccc(=O)oc2c1CC=C(C)C ?
GIRK2 act: inactive

What do the screens show for `O=C(NCc1cccc2ccccc12)N1CCN(Cc2nnnn2-c2cccc(F)c2)CC1`?
GIRK2 act: inactive

What do the screens show for `COc1ccc(OC)c(NC(=O)Cn2nc3c4cc(-c5ccc(F)cc5)nn4ccn3c2=O)c1`?
GIRK2 act: inactive

What do the screens show for `Cn1cc(C2=C(n3ccc4ccccc43)C(=O)NC2=O)c2ccccc21`?
GIRK2 act: inactive

How did Cc1cccc(NC(=O)CSc2nccc(N3CCN(c4ccc(F)cc4)CC3)n2)c1C do in these assays?
GIRK2 act: inactive

How did COc1ccc(C(=O)COc2ccc3c(=O)c(-c4ccc(OC)c(OC)c4)c(C)oc3c2)cc1 do in these assays?
GIRK2 act: inactive

How did O=C(NCc1ccccc1Cl)C1CCC(Cn2c(=O)[nH]c3ccsc3c2=O)CC1 (stereo not given) do in these assays?
GIRK2 act: inactive

How did O=C(Cc1ccc(F)cc1)NCCCS(=O)(=O)N1CCN(c2ccccn2)CC1 do in these assays?
GIRK2 act: inactive

Results for O=C(Nc1nc2c(s1)CN(C(=O)C1(c3cccs3)CCCC1)CC2)c1ccoc1 ?
GIRK2 act: inactive

What do the screens show for `O=C(NCCC(O)c1ccc2c(c1)OCO2)NCc1ccc(Cl)cc1` (stereo not given)?
GIRK2 act: inactive

How did Cc1ccc2oc(=O)cc(-c3oc4ccc(F)cc4c3C)c2c1 do in these assays?
GIRK2 act: inactive

Results for COc1ccccc1Oc1c(C)nc(N)nc1-c1ccc(OCc2ccccc2)cc1O ?
GIRK2 act: inactive

Results for CCCCC[C@H](O)/C=C/[C@H]1OC(O)C[C@H](O)[C@@H]1C/C=C\CCCC(=O)O (stereo not given in full) ?
GIRK2 act: inactive

How did O=C(Nc1ccc(-n2nnc(C(=O)NC3CCCC3)n2)cc1)c1cccc(F)c1 do in these assays?
GIRK2 act: inactive

What do the screens show for `Cc1ccc2c(Nc3ccc4c(c3)OCCO4)c(C(=O)N3CCCC3)cnc2n1`?
GIRK2 act: inactive

What do the screens show for `O=C(CC1=NS(=O)(=O)c2ccccc2N1)N1CCN(c2ccccc2F)CC1`?
GIRK2 act: inactive

Results for COc1ncccc1C(=O)NCCn1cnc(C)cc1=O ?
GIRK2 act: inactive

Results for Cc1ccc2c(Nc3cccc(Cl)c3C)c(C(=O)N3CCCC3)cnc2n1 ?
GIRK2 act: inactive

Results for Cc1cc(C(O)CCNC(=O)c2ccco2)c(C)o1 (stereo not given) ?
GIRK2 act: inactive

Results for COc1ccc(CCNC(=O)Nc2ccc3c(c2)CCCN3C(=O)C2CC2)cc1 ?
GIRK2 act: inactive

How did Cc1cc(C(=O)N(CCc2cccs2)C2CC2)c(C)o1 do in these assays?
GIRK2 act: inactive

Results for Cc1cc(C)n(-c2ccc(C(=O)Nc3ccc(F)c(C(F)(F)F)c3)nn2)n1 ?
GIRK2 act: inactive

Results for O=C(CSc1nc(-c2ccccc2)cc(-c2ccccc2)n1)N1CCOCC1 ?
GIRK2 act: inactive

What do the screens show for `CC(C)c1ccc(NC(=O)c2ccc(=O)n(Cc3cccc([N+](=O)[O-])c3)c2)cc1`?
GIRK2 act: inactive

How did COCCNC(=O)Cc1ccc(NC(=O)Nc2ccc(C(F)(F)F)cc2)cc1 do in these assays?
GIRK2 act: inactive

What do the screens show for `CC1=C(C)C(=O)OC(C(C)[C@H]2C(O)CC3C4C(CC[C@@]32C)[C@@]2(C)[C@@H](O)C[C@H](O)C[C@]2(O)[C@H]2O[C@@H]42)C1` (stereo not given in full)?
GIRK2 act: inactive

How did CCc1ccc(NC(=O)CSc2nnc(N3CCN(c4ccccc4)CC3)s2)cc1 do in these assays?
GIRK2 act: inactive

What do the screens show for `CN(CC(=O)O)C(=O)NC12CC3CC(C1)CC(c1ccccc1)(C3)C2`?
GIRK2 act: inactive

How did CCN1CCc2c(sc(NC(=O)CCCSc3ccccc3)c2-c2nc3ccccc3s2)C1 do in these assays?
GIRK2 act: inactive

Results for CCC(C)NC(=O)CCn1c(=O)c2ccccc2n2c(SCC(=O)NCC3CCCO3)nnc12 (stereo not given) ?
GIRK2 act: inactive

What do the screens show for `COc1ccc(-c2nc(Cn3c(=O)n(CC4CCCO4)c(=O)c4ccccc43)c(C)o2)cc1OC` (stereo not given)?
GIRK2 act: inactive

How did COc1ccc(-c2cc(=O)n(CCNC(=O)CCc3c(C)noc3C)cn2)cc1 do in these assays?
GIRK2 act: inactive

What do the screens show for `CN(C)CC1COCCN1C(=O)c1cccc(C(F)(F)F)c1` (stereo not given)?
GIRK2 act: inactive

How did O=C(Nc1cccc(C(F)(F)F)c1)NC1(c2nc(-c3ccncc3)no2)CCCCC1 do in these assays?
GIRK2 act: inactive

What do the screens show for `COc1cccc(CCNC(=O)C(=O)Nc2c3c(nn2C(C)(C)C)CSC3)c1`?
GIRK2 act: inactive

What do the screens show for `CCc1ccc(S(=O)(=O)N(CCOC)Cc2ccoc2)s1`?
GIRK2 act: inactive

What do the screens show for `COc1ccc(C2(CNC(=O)c3ccc(Cl)c(Cl)c3)CCOCC2)cc1`?
GIRK2 act: inactive

Results for N#C/C(C(=O)N1CCCCC1)=C1/N=C(NC(=O)c2ccc(F)cc2)c2ccccc21 ?
GIRK2 act: inactive

What do the screens show for `O=S(=O)(c1ccc(OC(F)(F)F)cc1)N1CCN(Cc2ccsc2)CC1`?
GIRK2 act: inactive

What do the screens show for `N#C/C(C(=O)NC1CCCC1)=C1/N=C(NC(=O)c2cccs2)c2ccccc21`?
GIRK2 act: inactive

Structures shown so far that have an aryl thioether with sulfur outside any ring (eleven):
Results for CSc1ccc(CNC(=O)c2cn(-c3cccc(F)c3)nn2)cc1 ?
GIRK2 act: inactive

What do the screens show for `COc1cccc(CSc2nc(CC(=O)Nc3ccc(F)c(F)c3)cc(=O)[nH]2)c1`?
GIRK2 act: inactive

Results for O=C(CSc1nnc2ccc(C(=O)Nc3cccc(F)c3)cn12)Nc1ccc(C(F)(F)F)cc1 ?
GIRK2 act: inactive

Results for Cc1cc(CN2CCC(CNC(=O)CSc3ccc(F)cc3)CC2)c(C)o1 ?
GIRK2 act: inactive

What do the screens show for `O=C(Cn1nc2c(SC3CCCCC3)nccn2c1=O)Nc1ccccc1Br`?
GIRK2 act: inactive

What do the screens show for `Cc1cc(C)n(-c2cc(SCC(=O)NC3CCCC3)ncn2)n1`?
GIRK2 act: inactive

How did Cc1cccc(NC(=O)CSc2nccc(N3CCN(c4ccc(F)cc4)CC3)n2)c1C do in these assays?
GIRK2 act: inactive

Results for O=C(CSc1nc(-c2ccccc2)cc(-c2ccccc2)n1)N1CCOCC1 ?
GIRK2 act: inactive

How did CCc1ccc(NC(=O)CSc2nnc(N3CCN(c4ccccc4)CC3)s2)cc1 do in these assays?
GIRK2 act: inactive

How did CCN1CCc2c(sc(NC(=O)CCCSc3ccccc3)c2-c2nc3ccccc3s2)C1 do in these assays?
GIRK2 act: inactive

Results for CCC(C)NC(=O)CCn1c(=O)c2ccccc2n2c(SCC(=O)NCC3CCCO3)nnc12 (stereo not given) ?
GIRK2 act: inactive

High-throughput results from PubChem.
